Mtb growth: M. tuberculosis H37Rv growth inhibitors, H37Rv strain (AID 1626); M. tuberculosis H37Rv growth inhibition; higher % means a stronger effect; one-dose inhibition, % at 10 µM; IC50 in µM for titrated hits; hit rate 0.95% among 220,000;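 active = confirmed in a dose series; inconclusive = inhibition above 80% but not taken into the dose series; inactive = below 80% or under 30% at every dose of the series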;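 also: bacteria incubated seven days before Alamar blue readout; 0% = bacteria only wells and 100% = bacteria with antibiotic wells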
RecA splice inh: inhibitors of M. tuberculosis RecA intein splicing. P9WHJ3. cell-free RecA intein splicing, fluorescence. inhibition, %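 (about 9 µM by stock and volumes)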. hit rate 0.75% among 290,000. AID 2221; in the data active = inhibition above about 30%; inconclusive = no clear call, values can overlap the other calls;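 also: 0% = vehicle wells and 100% = reference inhibitor control wells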
Target sequence (P9WHJ3 whole entry, looked up, canonical isoform): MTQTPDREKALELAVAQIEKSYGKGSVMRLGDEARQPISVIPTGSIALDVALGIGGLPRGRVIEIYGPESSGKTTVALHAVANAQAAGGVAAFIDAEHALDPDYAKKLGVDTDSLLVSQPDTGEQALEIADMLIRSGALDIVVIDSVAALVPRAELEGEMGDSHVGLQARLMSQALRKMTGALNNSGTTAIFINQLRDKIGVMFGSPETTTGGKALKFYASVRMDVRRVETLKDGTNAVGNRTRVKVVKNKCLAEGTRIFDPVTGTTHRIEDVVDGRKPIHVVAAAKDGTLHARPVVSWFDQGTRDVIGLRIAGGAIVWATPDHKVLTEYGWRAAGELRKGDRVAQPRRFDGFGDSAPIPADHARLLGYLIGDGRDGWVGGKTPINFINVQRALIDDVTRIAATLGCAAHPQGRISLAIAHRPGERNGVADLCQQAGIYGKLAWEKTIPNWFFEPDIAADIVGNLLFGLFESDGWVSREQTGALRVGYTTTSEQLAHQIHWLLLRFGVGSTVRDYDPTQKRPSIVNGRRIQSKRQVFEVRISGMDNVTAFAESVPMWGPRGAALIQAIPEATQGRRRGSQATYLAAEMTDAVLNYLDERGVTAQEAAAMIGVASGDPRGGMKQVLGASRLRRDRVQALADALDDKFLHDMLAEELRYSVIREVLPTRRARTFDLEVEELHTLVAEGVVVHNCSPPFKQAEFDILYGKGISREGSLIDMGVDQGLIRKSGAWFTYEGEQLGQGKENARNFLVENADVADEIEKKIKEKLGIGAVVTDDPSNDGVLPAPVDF
Mtb bLac sens: beta-lactam sensitization of Mtb H37Rv. hit rate 0.27% among 330,000. AID 434955. M. tuberculosis H37Rv growth with meropenem, percent inhibition; hits of this screen are not shown here. inhibition, % at 25 µM;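 active = about 74% or more and at least 40 points above the plate without the antibiotic, then above 30% in a dose series; inconclusive = first-round hits that could not be retested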;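 also: growth measured after seven days incubation then overnight dye step; 0% = bacteria only wells and 100% = bacteria with antibiotic; twin plates without the antibiotic show which effects depend on it; some results filed as inactive read as strong as hits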
Arbovirus inh: antivirals against arbovirus infection; arbovirus infection cell-based antiviral screen; inhibition, % at 10 µM; hit rate 0.37% among 200,000; AID 1251;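 active = inhibition from about 30%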;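 also: bluetongue infection of BSR cells; cell survival read as ATP light after 72 h; 0% = infected wells without compound and 100% = uninfected wells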
YopH inh: blocks Yersinia enterocolitica YopH tyrosine phosphatase; fluorescence Ex485/Em525; inhibition, %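 (about 10 µM by stock and volumes)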; hit rate 0.16% among 140,000; AID 898;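 active = inhibition of 50% or more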;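 also: controls were vehicle for no effect and minimum signal wells for full effect; inactives centre near -20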
Arbovirus inh repeat: recorded beside Arbovirus inh, whose call it bears; inhibition, %; measured here: 10K subset replicate screen; many hits read low in the repeat;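 first of two repeat runs on a subset; 0% = infected and 100% = uninfected wells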
Numbers without * were called inactive; & = joins results of further samples. A portion of the library, so the mix of outcomes need not match the whole.

The opening four entries, to show the layout:
For COc1ccc(OC)c(C(C)NC(=O)Nc2cccc(C(C)=O)c2)c1 (centres undefined) the results were Mtb growth 16%, RecA splice inh -0.3, Mtb bLac sens 9 and Arbovirus inh -1.
`COc1cc(Cl)c(C)cc1NC(=O)COC(=O)c1cc[n+]([O-])cc1` gave Mtb growth 0%, RecA splice inh 0.0, Mtb bLac sens -2 and Arbovirus inh 0.
For Cc1[nH]c2ccccc2c1/C=N/NC(=O)CNC(=O)Cc1ccccc1 the results were RecA splice inh -0.8 and Mtb bLac sens 4.
For Cc1cc(=O)oc2cc(OCC(=O)N3CCN(C(=O)C4COc5ccccc5O4)CC3)c(Cl)cc12 (centres undefined) the results were RecA splice inh -2.1 and Mtb bLac sens 91.

The listing, from the first entry:
For COc1ccc(OC)c(C(C)NC(=O)Nc2cccc(C(C)=O)c2)c1 (centres undefined) the results were Mtb growth 16%, RecA splice inh -0.3, Mtb bLac sens 9 and Arbovirus inh -1.
`COc1cc(Cl)c(C)cc1NC(=O)COC(=O)c1cc[n+]([O-])cc1` gave Mtb growth 0%, RecA splice inh 0.0, Mtb bLac sens -2 and Arbovirus inh 0.
For Cc1[nH]c2ccccc2c1/C=N/NC(=O)CNC(=O)Cc1ccccc1 the results were RecA splice inh -0.8 and Mtb bLac sens 4.
For Cc1cc(=O)oc2cc(OCC(=O)N3CCN(C(=O)C4COc5ccccc5O4)CC3)c(Cl)cc12 (centres undefined) the results were RecA splice inh -2.1 and Mtb bLac sens 91.
`CCC(C(=O)Nc1cc(C)cc(C)n1)c1ccccc1` (centres undefined) gave RecA splice inh 2.4 and Mtb bLac sens 1.
Screening O=S(=O)(NCC(c1ccc2c(c1)OCO2)N1CCOCC1)c1ccc(F)cc1 (centres undefined) returned RecA splice inh -0.6 and Mtb bLac sens -6.
For COc1cc(OC)cc(C(=O)Nc2ccccc2-c2nnn(CC(N)=O)n2)c1 the results were Mtb growth 3%, RecA splice inh 1.6, Mtb bLac sens 2 and Arbovirus inh 0.
`COc1ccccc1CCNC(=O)COc1cccc2c1OC(C)(C)C2` gave RecA splice inh 0.6 and Mtb bLac sens 7.
CCOC(=O)c1c(C)nsc1NC(=O)C1CCCCC1 was read as RecA splice inh 0.9 and Mtb bLac sens 1.
COC(=O)Cc1ccc(NC(=O)c2ccc(C)c(C)c2)cc1 was read as Mtb growth 2%, RecA splice inh 2.2, Mtb bLac sens 1, Arbovirus inh 1 and YopH inh -15.
For Cc1cc(C)nc(NS(=O)(=O)c2ccc(NC(=O)Nc3ccccc3F)cc2)n1 the results were Mtb growth 1%, RecA splice inh 2.9 and Mtb bLac sens -8.
For CCN(C(=O)CN1C(=O)COc2ccc(S(=O)(=O)N3CCOCC3)cc21)c1ccc(OC)cc1 the results were RecA splice inh 0.0 and Mtb bLac sens -2.
Screening Cc1ccc(OCC(=O)Nc2ccc(S(=O)(=O)Nc3cc(C)nc(C)n3)cc2)cc1 returned RecA splice inh -1.7 and Mtb bLac sens 1.
Screening CCN(CC)CCC(=O)Nc1cccc2c1C(=O)c1ccccc1C2=O returned Mtb growth 0%, RecA splice inh -6.9 and Mtb bLac sens 37.
`CC1CCC(NC(=O)c2ccc(CNc3c(NC4CCCCC4)c(=O)c3=O)cc2)CC1` (centres undefined) gave RecA splice inh 0.1, Mtb bLac sens -1, Arbovirus inh -3 and YopH inh 12.
Screening O=C(NCc1cccc(Cl)c1)C1CCN(c2nnc(N3CCCC3=O)s2)CC1 returned RecA splice inh -6.6 and Mtb bLac sens 1.
For O=c1cc(CO)[nH]cc1OCc1ccccc1 the results were Mtb growth -6%, RecA splice inh 0.1 and Mtb bLac sens -4.
Cc1cc(C)n(-c2nc3ccccc3nc2Nc2ccc3[nH]c(=O)[nH]c3c2)n1 was read as Mtb growth -3%, Mtb bLac sens -2, Arbovirus inh 4 and YopH inh -35.
`CCS(=O)(=O)c1ccc(Sc2nncn2C)c([N+](=O)[O-])c1` gave Mtb bLac sens -6 and Arbovirus inh 6.
`O=C(NCc1ccc(F)cc1)C(=O)NCC1OCCN1C(=O)c1cccs1` (centres undefined) gave Mtb growth 1%, RecA splice inh -1.1, Mtb bLac sens 4, Arbovirus inh -1 and YopH inh -11.
For CCCNC(=O)c1cc(C)no1 the results were Mtb growth 7%, RecA splice inh -1.2, Mtb bLac sens 9, Arbovirus inh 9 and YopH inh -5.
Cc1cc(NC(=O)CSc2nnc(-c3cccnc3)n2N)no1 was read as Mtb growth 70%, RecA splice inh -0.4, Mtb bLac sens 0, Arbovirus inh 8 and YopH inh -18.
CCOC(=O)C1CCCN(CCC(=O)Nc2c(C(=O)OC)[nH]c3cc(OC)ccc23)C1 (centres undefined) was read as Mtb growth -4%, RecA splice inh -1.2, Mtb bLac sens -15, Arbovirus inh -2 and YopH inh -42.
Screening COc1cccc(/C=N/NC(=O)C(c2ccncc2)N2CCOCC2)c1 (centres undefined) returned Mtb growth -8%, RecA splice inh -2.4 and Mtb bLac sens 1.
CNc1nc(Nc2ccc(C(C)=O)cc2)nc(OC(C(F)(F)F)C(F)(F)F)n1 was read as Mtb growth 17%, RecA splice inh 4.0, Mtb bLac sens 73, Arbovirus inh -12 and YopH inh -49.
`NS(=O)(=O)c1cc(C(=O)OCC(=O)Nc2ccc(N3CCCCC3)cc2)ccc1Cl` gave Mtb growth 2%, RecA splice inh -2.6 and Mtb bLac sens -5.
Screening O=C(CNC(=O)C(c1ccccc1)c1ccccc1)OCC(=O)c1cccs1 returned Mtb growth 1%, RecA splice inh -0.5, Mtb bLac sens 1, Arbovirus inh -4 and YopH inh -29.
For COc1cccc(NC(=O)Nc2cnccn2)c1 the results were Mtb growth -7%, RecA splice inh 0.9, Mtb bLac sens -3 and Arbovirus inh 1.
`CC(=O)c1cccc(NC(=O)COc2ccccc2)c1` gave Mtb growth -10%, RecA splice inh 3.0, Mtb bLac sens 1, Arbovirus inh -8 and YopH inh -28.
Screening CO/N=C/CC(=O)c1cnc(-c2ccccc2)s1 returned Mtb growth -2%, RecA splice inh -1.2, Mtb bLac sens 98 and Arbovirus inh -5.
Screening O=C(COc1ccccc1Cl)Nc1ccc(C(=O)O)cc1NC(=O)COc1ccccc1Cl returned RecA splice inh 1.2 and Mtb bLac sens 3.
Screening COc1cc(C=O)ccc1OCCOCCOc1ccc(Cl)cc1Cl returned Mtb growth 3%, RecA splice inh -0.4, Mtb bLac sens 4 and YopH inh -1.
`CC(C)(C)C(=O)NC(=S)Nc1ccc(Cl)c(C(=O)O)c1` gave Mtb growth 3%, RecA splice inh -0.4, Mtb bLac sens 5 and Arbovirus inh 1.
`COc1cccc(CNC(=O)CCC2CCCN(C(=O)c3csc(C(C)C)n3)C2)c1` (centres undefined) gave Mtb growth 0%, RecA splice inh -1.6, Mtb bLac sens 0 and Arbovirus inh 0.
COc1ccc(N(CC(=O)N2CCOCC2)S(C)(=O)=O)c(OC)c1 was read as RecA splice inh 0.6 and Mtb bLac sens -24.
COc1cc(C(=O)Nn2c(O)c(C3=c4ccccc4=NC3=O)sc2=S)ccc1O was read as Mtb growth -2%, RecA splice inh 6.1 and Mtb bLac sens 2.
Screening CCNC(=O)NNC(=O)C1CC(c2cccs2)=NO1 (centres undefined) returned Mtb growth -1%, RecA splice inh -1.3, Mtb bLac sens -1 and Arbovirus inh 1.
For COc1ccc(Cl)cc1NC(=O)CN1CCN(Cc2ccccc2)CC1 the results were RecA splice inh -1.1 and Mtb bLac sens 0.
For CCn1ccc(C(=O)N2CCOCC2)n1 the results were Mtb growth -7%, RecA splice inh 0.1, Mtb bLac sens -8 and Arbovirus inh 5.
O=C(Nc1ccc(-n2cnnn2)cc1)C(c1ccccc1)c1ccccc1 was read as Mtb growth -4%, RecA splice inh 0.6, Mtb bLac sens -1 and Arbovirus inh 1.
Screening O=C(Nc1ccc(S(=O)(=O)NCc2cccnc2)cc1)c1ccccc1Cl returned Mtb growth -1%, RecA splice inh -6.3, Mtb bLac sens 0, Arbovirus inh 8 and YopH inh -15.
For CC1CN(S(=O)(=O)N(C)C)CCN1S(=O)(=O)N(C)C (centres undefined) the results were Mtb growth 6%, RecA splice inh -0.2, Mtb bLac sens -11, Arbovirus inh 4 and YopH inh 3.
Cc1cc(C)cc(NC(=O)CSc2nc3[nH]c(=O)cc(O)c3s2)c1 was read as RecA splice inh 0.8 and Mtb bLac sens 8.
Screening FC(F)(F)c1cccc(N2CCNCC2)c1 returned Mtb growth -7%&1%, RecA splice inh -0.4, Mtb bLac sens -1 and Arbovirus inh -1.
Screening Cc1cc(C)cc(NC(=O)CN2CCN(c3ccccc3)CC2)c1 returned RecA splice inh 2.9 and Mtb bLac sens 1.
COc1ccccc1CN1CCC(CNS(=O)(=O)c2cc(-c3cc(C)no3)ccc2OC)CC1 was read as RecA splice inh -2.8 and Mtb bLac sens 0.
CN(C)CCNC(=O)c1cccc(S(=O)(=O)Nc2ccc(F)cc2)c1 was read as Mtb growth -13%, RecA splice inh -0.6, Mtb bLac sens -4 and Arbovirus inh 1.
`CCCCNC(=O)CSc1nccn1Cc1ccccc1` gave Mtb growth 2%, RecA splice inh -5.3, Mtb bLac sens -3, Arbovirus inh -3 and YopH inh -56.
`Cc1c(C(=O)NCC2CCCO2)oc2ccc3c(c12)C(=O)CC(C)(C)O3` (centres undefined) gave Mtb growth -1%, RecA splice inh 1.2, Mtb bLac sens 27, Arbovirus inh 3 and YopH inh -44.
`CCOC(=O)C(C)Oc1cc(C)cc2oc(=O)c3c(c12)CCCC3` (centres undefined) gave Mtb growth 4%, RecA splice inh 0.5, Mtb bLac sens 8, Arbovirus inh -1, YopH inh 18 and Arbovirus inh repeat 2.
Screening CCOc1ccc(S(=O)(=O)N2CCCCC2)cc1NC(=O)C1CSC2(C)CCC(=O)N12 (centres undefined) returned RecA splice inh -0.2 and Mtb bLac sens -14.
`O=C1c2cccc3cccc(c23)C(=O)N1c1ccc2ncccc2c1` gave Mtb growth -1%, Mtb bLac sens 16, Arbovirus inh -12 and YopH inh -21.
For O=C(CSc1nnc(-c2cccnc2)o1)Nc1ccc(Cl)cc1 the results were Mtb growth -5%, Mtb bLac sens -3 and Arbovirus inh -4.
`O=C(NCCNC(=O)c1ccccn1)c1ccccc1` gave RecA splice inh -4.4 and Mtb bLac sens 7.
`CC(=O)c1cccc(OCC(O)CN2CCN(C(=O)c3ccco3)CC2)c1` (centres undefined) gave RecA splice inh -1.1 and Mtb bLac sens 1.
`O=C(CNC(=O)c1ccccc1)OCCOc1cccc(Cl)c1` gave RecA splice inh 1.3 and Mtb bLac sens 0.
`O=C(Cn1cccc1)Nc1ccc(F)cc1F` gave Mtb growth -2%, RecA splice inh -1.0, Mtb bLac sens -7, Arbovirus inh -5 and YopH inh -52.
`C=CCO/N=C(/C)c1ccc(Oc2cnccn2)cc1` gave Mtb growth 5%, RecA splice inh -0.3, Mtb bLac sens 9 and Arbovirus inh 5.
Screening COC(=O)Cc1c(C)nc2nc(-c3cccnc3)[nH]n2c1=O returned Mtb growth -4%, RecA splice inh -1.2, Mtb bLac sens 5, Arbovirus inh -2 and YopH inh -58.
`Cc1ccc(C(=O)Cn2c(NCCO)nc3ccccc32)cc1` gave Mtb growth -1%, RecA splice inh 0.6, Mtb bLac sens 6, Arbovirus inh 5 and YopH inh -11.
For CCOC(=O)c1c(NC(=O)/C=C/C(=O)O)sc(C)c1-c1ccc(C)c(C)c1 the results were Mtb growth -2%, RecA splice inh 78*, Mtb bLac sens -5 and Arbovirus inh -17.
Screening Cc1ccccc1NC(=O)CSc1ccc(-c2ccc(-n3cccn3)cc2)nn1 returned RecA splice inh 0.2 and Mtb bLac sens -6.
Screening O=C(CSc1ccc(Cl)cc1)N1CCOCC1 returned Mtb growth -9%, RecA splice inh 2.5, Mtb bLac sens -2, Arbovirus inh 9 and YopH inh -22.
For Cc1c(C(=O)Nc2ccc(F)c(F)c2)oc2ccc(S(=O)(=O)N3CCCCC3)cc12 the results were Mtb growth 1%, RecA splice inh 4.1, Mtb bLac sens -2, Arbovirus inh 3 and YopH inh -26.
Cc1ccc(/C=N/N2CCN(c3ccccn3)CC2)cc1 was read as Mtb growth 0%, RecA splice inh -1.4, Mtb bLac sens -5 and Arbovirus inh 0.
`COC(=O)c1c(NC(=O)C2CC=CCC2C(=O)O)sc(C)c1C` (centres undefined) gave Mtb growth 2%, RecA splice inh -0.6, Mtb bLac sens inconclusive, Arbovirus inh 8 and YopH inh -18.
`CN(CC(=O)Nc1ccc(F)c(F)c1F)C(=O)CCCSc1nc2ccccc2[nH]1` gave RecA splice inh 0.5 and Mtb bLac sens -6.
O=C(N=C1SC2CS(=O)(=O)CC2N1c1ccc(F)cc1F)C1CC1 (centres undefined) was read as RecA splice inh -0.8 and Mtb bLac sens -3.

High-throughput results from PubChem.
